Screening data from PubChem BioAssay.
Mtb betalactam = beta-lactam sensitization of Mtb H37Rv | M. tuberculosis H37Rv growth with meropenem, percent inhibition; hits of this screen are not shown here | hit rate 0.27% among 330,000 | inhibition, % at 25 µM | AID 434955;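 active means about 74% or more and at least 40 points above the plate without the antibiotic, then above 30% in a dose series; inconclusive means first-round hits that could not be retested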;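 further: growth measured after seven days incubation then overnight dye step; 0% = bacteria only wells and 100% = bacteria with antibiotic; twin plates without the antibiotic show which effects depend on it; some results filed as inactive read as strong as hits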
* = called active by the depositor; ? = inconclusive. Some of the compounds tested. The share of hits here may be higher or lower than overall.

SMILES	Mtb betalactam
Cc1cccc(NC(=O)c2ccc(S(=O)(=O)N(C)c3ccccc3)cc2)n1	-8
CCOC(=O)C1CCN(C(=O)c2ccc(N3CCCC3=O)cc2)CC1	-8
CCOc1ccc(CCNC(=O)COC(=O)c2ccc[nH]c2=O)cc1OCC	-7
O=C(COC(=O)CCNS(=O)(=O)c1cccs1)Nc1cc(C(F)(F)F)ccc1Cl	-1
Cc1ccc2c(c1)NC(=O)[C@@]1(C)[C@@H](c3ccccc3)[C@H]3COc4ccccc4[C@@H]3N1C2=O	97
COc1cccc(NC(=O)CN(C)C(=O)c2cc3c(s2)CCCCC3)c1	2
CC(C)CN(C(=O)c1cccc(Cl)c1)c1c(N)n(Cc2ccccc2)c(=O)[nH]c1=O	-2
CCCCCC(CC(=O)NO)C(=O)NC(C(=O)N1CCCC1CO)C(C)C (stereo not given)	-3
COC(=O)C1=C(c2ccc3ccccc3c2)C[C@@H]2CC[C@H]1N2C(=O)NCc1ccc(F)cc1	-6
COc1ccc(OC)c(NC(=O)COC(=O)[C@H](Cc2ccccc2)NC(=O)c2ccco2)c1	-1
CCC(=O)c1ccc(OCC(=O)Nc2ccc(S(=O)(=O)Nc3cc(C)nc(C)n3)cc2)cc1	-3
COc1ccc(CN(C)C(=O)C2CCN(S(=O)(=O)c3cccs3)CC2)cc1F	-3
CC(NS(=O)(=O)c1ccc(Cl)c(Cl)c1)C(=O)Nc1cccnc1 (stereo not given)	3
C[C@H](CCC(=O)O)[C@H]1CC[C@H]2[C@@H]3CC[C@@H]4C[C@H](O)CC[C@]4(C)[C@H]3CC[C@]12C	1
COc1ccc(S(=O)(=O)Nc2cccc3c2O[C@H](CN(C)C(=O)NC(C)C)[C@@H](C)CN([C@H](C)CO)C3=O)cc1	7
Cc1ccc(C)c(NC(=O)CSc2ccc(S(=O)(=O)N3CCCC3)cn2)c1	1
CCN(C(=O)COC(=O)CC(C)c1ccccc1)c1c(N)n(Cc2ccccc2)c(=O)[nH]c1=O (stereo not given)	-2
O=C(CSc1nnc(-c2ccccc2)c2ccccc12)NCCN1C(=O)CSC1=O	-5
CN(CC(=O)Nc1ccc2c(c1)OCCO2)CC(=O)Nc1ccc(F)c(F)c1F	-4
Cc1cccc(NC(=O)CNC(=O)CN2CCN(C)CC2)c1C	-1
C=CCC[C@H](Cc1ccc(F)cc1)C(=O)OC[C@@H](Cc1c[nH]c2ccccc12)NC(=O)[C@@H](CC=C)CC(=O)N(CCO)Cc1ccccc1	3
COc1ccc(CNC(=O)COC(=O)c2c(NC(C)=O)sc(C)c2C)cc1	-5
O=C(OCC#CCSc1nnc(-c2cccc3ccccc23)o1)c1cccc2[nH]ccc12	3
O=C(c1ccc([N+](=O)[O-])cc1[N+](=O)[O-])N1CCN(C(=O)C2CCCO2)CC1 (stereo not given)	-5
COC(=O)C1C(O)CC2CCC1N2C (stereo not given)	-1
CSCCC(NS(=O)(=O)c1ccc(C)cc1)C(=O)N1CCCCCCC1 (stereo not given)	-3
O=C(Cc1ccccc1Cl)Nc1cc(S(=O)(=O)N2CCOCC2)ccc1N1CCOCC1	6
O=C(c1cc(C2CC2)nn1-c1ccccc1)N1CCN(S(=O)(=O)c2cccc(F)c2)CC1	-1
C#CCOCCOCCOCCNc1nc(N2CCN(C(=O)[C@H](CCCN=C(N)N)n3cc(C(N)[C@H](C)CC)nn3)CC2)nc(N2CCN(C(=O)[C@H](CC(N)=O)n3cc(C(N)[C@@H](C)CC)nn3)CC2)n1 (stereo not given in full)	-1
CC1CCN(c2ccc3c(c2)S(=O)(=O)c2cccc(C(=O)NCc4ccc(F)cc4)c2C3=O)CC1	6
Cn1ccc2cc(-c3ccc4ncnc(NCc5cccs5)c4c3)ccc21	73
CCN(CC)C(=O)c1ccc(NC(=O)c2c(C)noc2C)cc1	3
CCc1ccccc1NC(=O)CNC(=O)c1cn(Cc2ccccc2)nc1-c1cccnc1	-1
Cc1ccc(OCCC(=O)Nc2ccc(S(=O)(=O)N3CCCC3)cc2)cc1	2
CCCc1cc(=O)[nH]c(SCC(=O)Nc2cccc(S(=O)(=O)N3CCOCC3)c2)n1	4
C#CCOCCOCCOCCNc1nc(N2CCN(C(=O)[C@H](CO)n3cc([C@@H](N)C(C)C)nn3)CC2)nc(N2CCN(C(=O)[C@H](CCC(=O)O)n3cc([C@@H](N)[C@H](C)CC)nn3)CC2)n1	-4
NC(=O)c1cc([N+](=O)[O-])ccc1NCc1ccc(O)cc1	43
CCN1C(=O)[C@H]2[C@@H](c3ccc(-c4ccc(F)cc4)c(OC)c3)N3CCCC[C@@]3(C(=O)OC)[C@H]2C1=O	-12
COC(=O)c1ccc(C)c(NC(=O)CCn2[nH]c(=O)ccc2=O)c1	-3
CCn1c(=O)n(CC)c2cc(NC(=O)CSc3ccc([N+](=O)[O-])cn3)ccc21	-2
Fc1ccccc1-c1nc(-c2ccncc2)no1	-13
C[C@@H]1CN([C@H](C)CO)C(=O)c2cc(NC(=O)Nc3ccc(C(F)(F)F)cc3)ccc2O[C@H]1CN(C)Cc1ccc(Cl)c(Cl)c1	0
Cc1cc(Br)ccc1NC(=O)CNC(=O)c1cnn(C)c1	-4
Cc1cccc(NC(=O)c2nc[nH]c2C(=O)NCCN(CCNC(=O)c2[nH]cnc2C(=O)Nc2cccc(C)c2)CCNC(=O)c2[nH]cnc2C(=O)Nc2cccc(C)c2)c1	10
Cc1nc(SCc2nc3c(C)cccc3[nH]2)c2oc3ccccc3c2n1	1
O=C(Nc1ccc(OC(F)(F)F)cc1)C1CC(=O)N(Cc2ccco2)C1 (stereo not given)	-9
O=C(COc1ccc2ccc(=O)oc2c1)NC1CCCCC1	3
O=C(Nc1nc(-c2ccco2)c(-c2ccco2)s1)c1c(F)cccc1Cl	-3
O=C(Cn1ccc(NC(=O)OCc2ccccc2)nc1=O)NCc1ccccn1	-4
CC(=O)c1sc(NC(=O)CSCc2c(C)noc2C)nc1-c1ccccc1	-12
O=C(NCc1ccccc1Br)c1cccc2c1C(=O)c1ccc(N3CCC(Cc4ccccc4)CC3)cc1S2(=O)=O	-4
COc1cccc(NC(=O)CN2C(=O)NC3(CCCc4ccccc43)C2=O)c1 (stereo not given)	-2
O=C(Nc1ccccc1Br)C1CCN(S(=O)(=O)c2cccs2)CC1	-7
C=CCC1([C@@H](C)CCC)C(=O)NC(=O)NC1=O	-5
COc1ccc(CNC(c2ccccc2)c2ccc(Cl)cc2)cc1 (stereo not given)	2
CC1CCC(NC(=O)CN2C(=O)NC3(CCCCC3C)C2=O)CC1 (stereo not given)	2
C=CCC[C@@H](Cc1ccc(F)cc1)C(=O)OC[C@H](Cc1c[nH]c2ccccc12)NC(=O)[C@@H](CC=C)CC(=O)N(CCO)Cc1ccccc1	-2
COc1ccc(S(=O)(=O)N2CCc3ccccc32)cc1C(=O)NCC(c1ccco1)N1CCCC1 (stereo not given)	-6
CC(CC(=O)Nc1cccc(S(=O)(=O)N2CCCCC2)c1)c1ccccc1 (stereo not given)	3
CN(Cc1ccccc1)S(=O)(=O)c1ccc(NC(=O)C2CCCCC2C(=O)O)cc1 (stereo not given)	-2

(more compounds)
SMILES	Mtb betalactam
C=CCC[C@H](Cc1ccc(F)cc1)C(=O)OC[C@@H]1CCCN1C(=O)[C@@H](CC=C)CC(=O)NCCO	3
COc1cc(C(=O)NCC(c2ccco2)N2CCCC2)ccc1OCc1ccccc1 (stereo not given)	-9
CCc1ccccc1Nc1nc(N)nc(COC(=O)C2=COCCO2)n1	68
COCCN(C(=O)c1csnn1)C(C(=O)NC1CCCCC1)c1ccccc1F (stereo not given)	-3
C[C@@H]1CN([C@H](C)CO)C(=O)c2cccc(NC(=O)NC3CCCCC3)c2O[C@@H]1CN(C)C(=O)Nc1ccc(C(F)(F)F)cc1	39
CC(C)(C)c1ccc(C(=O)NCCCn2ccnc2)cc1	-7
CCOC(=O)C1=C(COC(=O)c2sccc2C)NC(=O)NC1C (stereo not given)	-4
C#CCOCCOCCOCCNc1nc(N2CCOCC2)nc(N2CCN(C(=O)CCCCCCCCCCNC(=O)[C@@H]([C@H](C)O)n3cc(C)nn3)CC2)n1	15
CC(C)(C)OC(=O)N1CCC(NC(=O)c2nc[nH]c2C(=O)N2CCN(c3ccccc3)CC2)CC1	-4
O=C(c1ccccc1)c1ccc(C(=O)N2CCN(c3ccccc3Cl)CC2)cc1	33
Cc1ccc(S(=O)(=O)N2[C@@H](c3ccc(C#N)cc3)C(C(=O)O)=C[C@H]2C(C)(C)C)cc1	-2
CC(C)(C)[C@H]1COC(=O)[C@H](NC(=O)OCC2c3ccccc3-c3ccccc32)C/C=C\C[C@@H](CC(=O)N(CCO)Cc2ccccc2)C(=O)N1	31
CC(=O)C[C@@H](O)CC(=O)[C@H]1OC(=O)CCCCCCc2ccccc21	1
O=C(COC(=O)c1ccc2ncsc2c1)Nc1ccccc1Br	73
CC(=O)c1cccc(S(=O)(=O)N2CCC(C(=O)N(C)Cc3ccc(Cl)s3)CC2)c1	-7
O=C(COC(=O)/C=C/c1cccs1)Nc1ccc(F)cc1	3
COc1cccc(NC(=O)[C@@H](NC(=O)N2C[C@H]3C[C@@H](C2)c2cccc(=O)n2C3)C(C)C)c1	-8
Oc1ccc(-c2csc(Nc3ccccn3)n2)c(O)c1	10
CC1CN(C(=O)CNC(=O)Cc2cccc3ccccc23)CC(C)O1 (stereo not given)	3
CC(C)[C@H](NC(=O)c1ccc(Cl)cc1Cl)C(=O)NNC(=O)c1ccco1	-6
Cc1cc(NC(=O)CN2C(=O)NC3(CCCCCC3)C2=O)ccc1Br	-12
CCCCn1c(N)c(N(CCC(C)C)C(=O)c2cccc(S(=O)(=O)N3CCN(C)CC3)c2)c(=O)[nH]c1=O	-1
O=C(COC(=O)c1ccc(Br)o1)Nc1ccc2[nH]c(=O)[nH]c2c1	-2
CCC(=O)c1ccc(OCC(=O)Nc2ccc(N3CCCCC3)cc2)cc1	-3
O=C(CNC(=O)c1ccccc1F)OC1CCOC1=O (stereo not given)	-2
Cc1ccc(NC(=O)COC(=O)c2ccc(S(=O)(=O)NCc3ccco3)cc2)cc1	5
Cc1ccc(C(NC(=O)c2cccc(S(=O)(=O)N3CCN(C)CC3)c2)c2ccccc2)cc1 (stereo not given)	3
CCOc1ccc(N2C(=O)CSC2=NC#N)cc1	33
Cc1cc(C(=O)COC(=O)c2cnccn2)c(C)n1-c1ccc(Br)cc1	13
Cc1oncc1C(=O)Nc1cccc(C#N)c1	?
CS(=O)(=O)c1ccc(Cl)c(NC(=O)COC(=O)c2ccc(-n3cnnn3)cc2)c1	6
CN(CC(=O)NCc1ccc(F)cc1)S(=O)(=O)c1ccc(Br)s1	-5
CCCNC(=O)C(Cc1ccc(Cl)cc1)NC(=O)c1ccc(C#N)cc1 (stereo not given)	2
Cc1ccc(C(=O)CCC(=O)NN2C(=O)NC3(CCCCC3)C2=O)cc1	-9
O=C(COc1ccc(Br)cc1F)NCC1(N2CCCCC2)CCCCC1	1
NC(=O)c1ccccc1NC(=O)CC12CC3CC(CC(C3)C1)C2	-3
Cc1ccc(NC(=O)c2ccccc2OCc2c(C)noc2C)cc1S(=O)(=O)N(C)C	6
Cc1cc(C(=O)Nc2nnc(C3CC3)s2)c(C)s1	?
O=C(COC(=O)Cc1ccc(Br)cc1)NCC1CCCO1 (stereo not given)	-1
COc1ccc(S(=O)(=O)Nc2ccc(-c3ccc4nnc(C)n4n3)cc2)c(OC)c1	-7
CCC(=O)N1N=C(c2ccc(NS(=O)(=O)c3ccc(C)cc3)cc2)CC1c1ccco1 (stereo not given)	-1
COCCn1c(SCC(=O)NN2C(=O)NC(C)(c3ccccc3)C2=O)nnc1-c1ccncc1 (stereo not given)	1
O=C(CNc1ccccc1Cl)c1ccc(Br)cc1	2
O=C(c1ccc(NS(=O)(=O)c2cccc([N+](=O)[O-])c2)cc1)N1CCN(C(=O)c2ccco2)CC1	-6
COc1ccc(CCC(=O)OCC(=O)NCc2ccc3c(c2)OCO3)cc1	-2
COc1ccc(CNC(=O)N2CCN(c3cccc(C)c3C)CC2)cc1OC	5
Cc1nn(-c2ccccc2)c(C)c1NC(=O)COC(=O)c1ccccc1	5
NC(=O)c1cc(S(=O)(=O)N2CCCC2)ccc1OCCOc1ccccc1	11
CC1(C)C(=O)Nc2ccccc2N1C(=O)COC(=O)c1cccc(O)c1	-7
O=C(O)c1cc(S(=O)(=O)N2CCCCC2)ccc1N1CCOCC1	-4
CC(C)c1ccc(S(=O)(=O)Nc2ccc3c(c2)OCO3)cc1	2
CCOc1ccc(CCNC(=O)CN2C(=O)NC3(CCCCCC3)C2=O)cc1OCC	-4

Quoted from the listing (14 entries):
SMILES	Mtb betalactam
O=C(COC(=O)Cc1ccc(Br)cc1)NCC1CCCO1 (stereo not given)	-1
COc1ccc(S(=O)(=O)Nc2ccc(-c3ccc4nnc(C)n4n3)cc2)c(OC)c1	-7
CCC(=O)N1N=C(c2ccc(NS(=O)(=O)c3ccc(C)cc3)cc2)CC1c1ccco1 (stereo not given)	-1
COCCn1c(SCC(=O)NN2C(=O)NC(C)(c3ccccc3)C2=O)nnc1-c1ccncc1 (stereo not given)	1
O=C(CNc1ccccc1Cl)c1ccc(Br)cc1	2
O=C(c1ccc(NS(=O)(=O)c2cccc([N+](=O)[O-])c2)cc1)N1CCN(C(=O)c2ccco2)CC1	-6
COc1ccc(CCC(=O)OCC(=O)NCc2ccc3c(c2)OCO3)cc1	-2
COc1ccc(CNC(=O)N2CCN(c3cccc(C)c3C)CC2)cc1OC	5
Cc1nn(-c2ccccc2)c(C)c1NC(=O)COC(=O)c1ccccc1	5
NC(=O)c1cc(S(=O)(=O)N2CCCC2)ccc1OCCOc1ccccc1	11
CC1(C)C(=O)Nc2ccccc2N1C(=O)COC(=O)c1cccc(O)c1	-7
O=C(O)c1cc(S(=O)(=O)N2CCCCC2)ccc1N1CCOCC1	-4
CC(C)c1ccc(S(=O)(=O)Nc2ccc3c(c2)OCO3)cc1	2
CCOc1ccc(CCNC(=O)CN2C(=O)NC3(CCCCCC3)C2=O)cc1OCC	-4
